# Screening results: PubChem, Southern Research Institute
# Mtb H37Rv: Mycobacterium tuberculosis H37Rv growth inhibition, cell based, confirmatory dose response (AID 1949); most inactive calls were filed without a number and no value below 0 was filed; inhibition, % at 10 µg/mL, or IC50 in µg/mL where a hit was titrated; hit rate 1.6% among 100,000;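 active = confirmed in a dose series; inconclusive = about 50% or more but not retested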;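 also: bacteria grown 7 days with compound before Alamar blue readout; 0% = untreated bacteria and 100% = reference antibiotic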
# An asterisk follows results filed as active; i = inactive; ? = inconclusive. Some of the compounds tested; count on the stated rates, not on these rows.
SMILES,Mtb H37Rv
COc1ccc(Cl)cc1NS(=O)(=O)c1ccc(C)cc1OC,i
CCCn1c(SCC(=O)Nc2ccccc2)nnc1-c1ccccc1,4%
COc1ccc(C(=O)NC2c3ccccc3-c3ccccc32)cc1,i
CCOc1ccccc1N1CCN(S(=O)(=O)c2ccccc2)CC1,i
COc1ccccc1N(C(=O)Nc1ccc(Cl)cc1)C(C)C1CC1 (stereo not given),4%
Cc1ccc(-c2nnc(NC(=O)C(C)C)s2)cc1,2%
CCn1nccc1C(=O)NC1CCCCCC1,i
O=C1CC(Cc2ccccc2)C(=O)N1c1ccc(Oc2ccccc2)cc1 (stereo not given),i
CCOC(=O)c1c(NC(=O)c2ccccc2)sc(C(=O)Nc2ccc(OC)cc2)c1C,16%
Cc1scc(C(=O)NCCCN2CCCC2=O)c1-c1ccccc1,i
COC(=O)c1ccccc1NC(=O)COc1ccc(S(=O)(=O)NCCc2ccccc2)cc1,i
Cc1cc(C(=O)NNC(=S)NC(C)c2ccccc2)c2ccccc2n1 (stereo not given),i
CCOC(=O)c1c(NC(=O)CSc2nnc3scc(-c4ccccc4)n23)sc(C)c1C,1%
O=C(NCCC1=CCCCC1)C1CCN(C(=O)c2ccc([N+](=O)[O-])cc2)CC1,i
CCCCc1nc(S(=O)(=O)c2ccc(C)cc2)c(N(C)C)o1,i
COc1ccccc1OCc1nc2ccccc2n1C,i
COc1ccc(CCNC(=S)NNC(=O)c2ccc(Cl)s2)cc1OC,i
CCCCNC(=O)CN1C(=O)c2ccccc2S1(=O)=O,i
CC(C)C(=O)Nc1ccc(N2CCN(Cc3ccccc3)CC2)cc1,i
O=C(COc1ccc(C(=S)N2CCOCC2)cc1)Nc1ccccc1C(F)(F)F,i
CCc1nnc(NC(=O)c2cccc(NC(=O)C(C)C)c2)s1,i
CCOc1ccc(-c2cc(C(=O)N/N=C/c3ccc(O)c(OC)c3)[nH]n2)cc1,i
O=C(O)CNc1ncnc2oc(-c3ccccc3)c(-c3ccccc3)c12,i
COc1cc(C=O)ccc1OCc1nnc(-c2ccccc2)o1,39%
COc1ccc(/C(N)=N/OC(=O)c2cc(C)cc(C)c2)cc1,34%

# The final 6 entries of the section above open the next one.
SMILES,Mtb H37Rv
O=C(COc1ccc(C(=S)N2CCOCC2)cc1)Nc1ccccc1C(F)(F)F,i
CCc1nnc(NC(=O)c2cccc(NC(=O)C(C)C)c2)s1,i
CCOc1ccc(-c2cc(C(=O)N/N=C/c3ccc(O)c(OC)c3)[nH]n2)cc1,i
O=C(O)CNc1ncnc2oc(-c3ccccc3)c(-c3ccccc3)c12,i
COc1cc(C=O)ccc1OCc1nnc(-c2ccccc2)o1,39%
COc1ccc(/C(N)=N/OC(=O)c2cc(C)cc(C)c2)cc1,34%
Cc1ccc2nc(NC(=O)Nc3ccc(F)cc3)sc2c1,i
Cc1cc(NC(=O)c2sc3nc(-c4cccnc4)ccc3c2N)no1,i
COCCNC(=O)C(=O)NCc1ccc(C(C)C)cc1,i
Cc1cccc(OC(=O)COc2ccc(Cl)cc2C)c1,i
CCOC(=O)c1ccc(NC(=O)c2ccncc2)cc1,i
CC(C)(C)c1oc2cc(Br)c(O)cc2c1C(=O)O,4%
CCOc1ccccc1NC(=S)N1CC(C)CC(C)C1 (stereo not given),i
COC(=O)c1sc2cc(NC(=S)Nc3ccc(C(=O)N4CCCCC4)cc3)ccc2c1Cl,i
CC(=O)NS(=O)(=O)c1ccc(NC(=O)COc2cc(Cl)c(Cl)cc2Cl)cc1,i
CC(CNC(=O)c1cc(Cl)ccc1Cl)NC(=O)c1cc(Cl)ccc1Cl (stereo not given),i
COc1ccc2c(c1)C1C=CCC1C(c1cccc([N+](=O)[O-])c1)N2 (stereo not given),2%
CCn1c(SCC(=O)Nc2c(C)cc(C)cc2C)nnc1C(C)NC(=O)c1cccc(C)c1 (stereo not given),i
CS(=O)(=O)N(CC(=O)N1CCC(C(N)=O)CC1)c1ccc(Br)cc1,3%
COC(=O)c1c(NC(=O)Cc2ccccc2[N+](=O)[O-])sc2c1CCCC2,7%
CC(=O)Oc1ccc(/C=C/c2ccc3ccccc3n2)cc1Br,3%
Cc1ccc(C(C)C)c(OCC(=O)Nc2ccc(S(=O)(=O)N(C)C)cc2)c1,3%
Cc1ccc(Cl)cc1NC(=O)c1cccs1,i
NC(=O)CN1CCN(C(=O)NC2CCCCC2)CC1,i
CC(NS(=O)(=O)c1ccc(OCC(=O)NCc2ccccc2)cc1)c1ccccc1 (stereo not given),i
O=C(Nc1nc2ccccc2s1)C1CC(=O)N(c2ccccc2Cl)C1 (stereo not given),i
O=S(=O)(c1ccc(NC(=S)NCc2ccc(F)cc2)cc1)N1CCOCC1,i
Cc1ccc(C(CC(=O)NCC2(c3ccccc3)CCOCC2)c2ccccc2)c(O)c1 (stereo not given),i
Cc1ccc(NC(=O)CSc2nnc(-c3ccncc3)o2)cc1C,i
O=C(Nc1nnc(-c2ccc(Cl)cc2Cl)s1)c1cccc(Br)c1,i
CC(=O)c1cccc(NS(=O)(=O)c2ccc(Br)s2)c1,i
# Continuation.
SMILES,Mtb H37Rv
CC1=C(C(=O)Nc2ccc(Cl)cc2)C(c2cccnc2)n2ncnc2N1 (stereo not given),i
O=c1oc2cc(OCc3cccc(F)c3)ccc2c2ccccc12,0%
Cc1ccc(-c2nnc(SCC(=O)Nc3ccccc3)o2)cc1,?
CCOc1ccccc1N(CC(=O)Nc1ccc(F)c(Cl)c1)S(=O)(=O)c1ccccc1,5%
CCc1cc(=O)oc2c(C)c(OCc3ccc(F)cc3Cl)ccc12,4%
CS(=O)(=O)N(CC(=O)Nc1ccc(C(F)(F)F)cc1)c1ccc(Oc2ccccc2)cc1,i
O=C(Nc1ccc(N2CCOCC2)cc1)C12CC3CC(CC(C3)C1)C2,i
CC1CC(NC(=O)c2ccccc2Br)CC(C)(C)C1 (stereo not given),i
Cc1cccc(-c2nnc(SCC(=O)Nc3nc4ccccc4s3)n2C)c1,i
CNC(=S)NNC(=O)CN(C)S(=O)(=O)c1ccccc1,0%
C#CCOc1ccc(OC)cc1/C=C(/C#N)c1ccc(C#N)cc1,i
COc1ccccc1Oc1coc2cc(OC(=O)C(C)C)ccc2c1=O,i
CCN(CC)C(=O)C(=O)Nc1ccc(Cl)cc1Cl,i
COc1ccc(-c2cc(C(F)F)n3ncc(C(=O)N4CCN(c5ccccn5)CC4)c3n2)cc1,41%
CN1CCN(c2ccc(-c3nn(CC(=O)N4CCCCC4)c(=O)c4ccccc34)cc2[N+](=O)[O-])CC1,i
COc1cc(NC(=O)c2cnn3cc(Br)cnc23)c(OC)cc1Cl,i
COC(=O)c1c(-c2ccc(OC)cc2OC)csc1N,i
COc1ccc(S(=O)(=O)Nc2ccc3c(c2)OCCO3)cc1OC,i
O=C(CCCN1CCN2CCCCC2C1)c1ccc(F)cc1 (stereo not given),2%
CN1CCC(NC(=O)c2cccnc2)CC1,i
CCc1cccc(CC)c1NC(=O)CN(c1ccc(Cl)cc1)S(=O)(=O)c1ccc(OC)cc1,i
N/C(=N\OC(=O)CCC1CCCCC1)c1cccc([N+](=O)[O-])c1,i
COc1ccc(Br)cc1C(=O)Nc1ccccc1C(=O)O,i
O=C(c1cccc(F)c1)N1CCN(c2ccc([N+](=O)[O-])c(NCc3cccnc3)c2)CC1,i
COc1cccc(OC)c1C(=O)NC(=S)Nc1cc(-c2nc3cc(C)ccc3o2)ccc1C,i

# Some of these compounds in order of count of non-hydrogen atoms, high to low:
SMILES,Mtb H37Rv
CCc1cccc(CC)c1NC(=O)CN(c1ccc(Cl)cc1)S(=O)(=O)c1ccc(OC)cc1,i
O=C(c1cccc(F)c1)N1CCN(c2ccc([N+](=O)[O-])c(NCc3cccnc3)c2)CC1,i
CCOc1ccccc1N(CC(=O)Nc1ccc(F)c(Cl)c1)S(=O)(=O)c1ccccc1,5%
O=C(Nc1ccc(N2CCOCC2)cc1)C12CC3CC(CC(C3)C1)C2,i
CCc1cc(=O)oc2c(C)c(OCc3ccc(F)cc3Cl)ccc12,4%
O=C(CCCN1CCN2CCCCC2C1)c1ccc(F)cc1 (stereo not given),2%
CN1CCC(NC(=O)c2cccnc2)CC1,i

# New compounds follow
SMILES,Mtb H37Rv
CCc1ccc2nc(Nc3nc4c(c(=O)[nH]3)CCCC4)nc(C)c2c1,25%
O=C(Nc1ccon1)C(Sc1ccccc1)c1ccccc1 (stereo not given),i
Cc1ccc(-c2nn(C)c(=O)c3ccccc23)cc1S(=O)(=O)NC1CCCCC1,1%
Nc1ncnc2c1c1nc3ccccc3nc1n2CCc1ccccc1,i
CCOc1ccc(Br)cc1C(=O)NCCc1ccccc1,6%
CCOc1cc(CNc2cccc(C(F)(F)F)c2)cc(Cl)c1OCC(=O)NC(C)(C)C,15%
CCc1cc(-c2[nH]ncc2Oc2ccc(-c3ccccc3)cc2)c(O)cc1O,i
CC(=O)Nc1ccc(S(=O)(=O)NCCCNc2ccc([N+](=O)[O-])cc2)cc1,i
Brc1ccccc1OCCCCn1cnc2ccccc21,?
COc1ccc(OCCCON2C(=O)c3ccccc3C2=O)cc1,i
COc1ccc(N(CC(=O)NCc2ccccc2Cl)S(=O)(=O)c2ccc(C)c([N+](=O)[O-])c2)cc1,9%
Cc1ccc(N(C(C)C(=O)Nc2cccnc2)S(C)(=O)=O)cc1C (stereo not given),0%
CCOC(=O)c1cc(NC(=O)Cn2cc(C=O)c3ccccc32)ccc1Cl,i
CC(=O)c1cccc(NS(=O)(=O)c2cccc(C)c2)c1,i
Cc1cc(NC(=O)c2ccc3c(c2)C(=O)N(CCC(C)C)C3=O)no1,2%
COc1ccc(C(=O)Nc2ccccc2)cc1S(=O)(=O)N1CCc2ccccc21,i
Oc1ccccc1-c1nc(NCCc2ccccc2)c2ccccc2n1,i
COc1ccc(OCCCN2C(=O)NC(C)(C)C2=O)cc1,i
CC(C)C(=O)Nc1ccc(S(=O)(=O)Nc2nccc(/C=C/c3ccccc3F)n2)cc1,i
CN(C)S(=O)(=O)c1cccc(C(=O)N(Cc2ccc(F)cc2)Cc2ccco2)c1,i
CCN(CC)C(=O)COc1nc2c(C3CC3)cc(C(F)(F)F)nc2o1,i
CNS(=O)(=O)c1ccc2c(c1)oc(=O)n2C,i
COc1ccc(CSc2nnc(C3CCCCC3)n2N)cc1,i
O=C1CCCC2=C1C(c1ccncc1)Nc1ccc(C(=O)c3ccccc3)cc1N2 (stereo not given),2%
CCOc1ccc(Cl)cc1CNc1ccc(C)c(Cl)c1,22%

# Next part (6 carried over from the part before).
SMILES,Mtb H37Rv
CN(C)S(=O)(=O)c1cccc(C(=O)N(Cc2ccc(F)cc2)Cc2ccco2)c1,i
CCN(CC)C(=O)COc1nc2c(C3CC3)cc(C(F)(F)F)nc2o1,i
CNS(=O)(=O)c1ccc2c(c1)oc(=O)n2C,i
COc1ccc(CSc2nnc(C3CCCCC3)n2N)cc1,i
O=C1CCCC2=C1C(c1ccncc1)Nc1ccc(C(=O)c3ccccc3)cc1N2 (stereo not given),2%
CCOc1ccc(Cl)cc1CNc1ccc(C)c(Cl)c1,22%
Fc1ccccc1N1CCN(C2CCN(Cc3ccccc3)CC2)CC1,i
Nc1[nH]c(=S)[nH]c(=O)c1-c1ccccc1,1%
O=C(NCC1CCCO1)c1cccc(F)c1F (stereo not given),3%
CCc1cccc(CC)c1NC(=O)CS,i
C=CCn1c(COc2cccc3ccccc23)nnc1SCc1ccccc1,i
c1ccc(CNCCOc2ccccc2-c2ccccc2)cc1,1%
CCC(NC(=O)c1ccccc1Br)c1ccccc1 (stereo not given),i
O=C(CCSc1ccccc1)NCCN1CCOCC1,i
Cn1c(=O)cc(Nc2ccccc2)[nH]c1=O,i
S=C(Nc1ccccc1)Nc1nc2ccccc2n1Cc1ccccc1,6%
CCNC(=O)CCc1nc(-c2ccc(OC)cc2)no1,i
CCc1ccc(C(=O)NC(=S)Nc2ccc(-c3nc4ncccc4o3)cc2)cc1,i
CC(C)COc1ccc(-c2nn(-c3ccccc3)cc2C(=O)Nc2nccs2)cc1,0.19µg/mL*
CCn1c(-c2ccccc2OC)n[nH]c1=S,2%
O=C(Nc1cccc(C(F)(F)F)c1)c1cccnc1N1CCCC1,i
O=C(O)CN1C(=O)C2C3C=CC(C4CC34)C2C1=O (stereo not given),i
COc1ccc(OC)c(C(=O)CSc2nnc(-c3ccncc3)n2-c2ccc(C)cc2)c1,i
CC(C)(C)NC(=S)Nc1ccc(Cl)cc1,i
CC(=O)NC(c1ccc(C(C)C)cc1)c1ccc2cccnc2c1O (stereo not given),9%
Cn1c(=O)n(CC(=O)N2CCOCC2)c2ccccc21,i
CCn1c2ccccc2n2c(S(=O)(=O)Cc3ccccc3)nnc12,i
Cc1ccccc1OCc1nc2ccccc2n1CC(=O)NNC(=O)COc1ccccc1,i
CCC(Sc1nc(C)cc(C)n1)C(=O)Nc1cccc2ccccc12 (stereo not given),3%
Cc1ccc(-n2c(Cc3ccccc3)nnc2SCC(=O)Nc2ccccc2Cl)cc1C,i
Cc1ccc([N+](=O)[O-])cc1NC(=O)c1ccc(F)cc1,i

# Taken from above:
# Mtb H37Rv result of `CCc1cc(=O)oc2c(C)c(OCc3ccc(F)cc3Cl)ccc12` stands at 4%
# Mtb H37Rv result of `COc1cc(C=O)ccc1OCc1nnc(-c2ccccc2)o1` stands at 39%

# Later entries
SMILES,Mtb H37Rv
O=c1[nH]c(/C=C\c2ccc(-c3cccc(Cl)c3Cl)o2)c([N+](=O)[O-])c(=O)[nH]1,i
COc1ccc(Cl)cc1NC(=O)c1ccccc1N(C)S(=O)(=O)c1ccc(C)cc1,i
O=C(CCCOc1ccc(Cl)cc1)Oc1ccc(Br)cc1,i
O=C(Nc1ccc(N2CCN(Cc3ccccc3Cl)CC2)cc1)c1cccc(F)c1,i
Cc1ccc([N+](=O)[O-])cc1NC(=O)CSC1=NCCS1,i
Cc1nc2ccccc2c(=O)n1-c1ccccc1,i
CC(Cc1ccccc1)NC(=S)Nc1ccccc1 (stereo not given),i
CCOC(=O)c1sc2ncn(Cc3c(F)cccc3Cl)c(=O)c2c1C,i
CCOc1ccc(NCCC(=O)c2ccc3c(c2)OCO3)cc1,3.3µg/mL*
CC(C)(CO)NC(=O)c1ccc(C(C)(C)C)cc1,0%
O=C(CN1CCN(c2ccccc2)CC1)NCc1ccccc1,1%
CCCCC(CC)C(=O)Nc1cccc(C(C)=O)c1 (stereo not given),i
COC(=O)Cc1ccc(NC(=S)Nc2ccc(OC)cc2OC)cc1,i
